Assay outcomes: PubChem, GNF / Scripps  Winzeler lab
P. yoelii liver: Plasmodium liver-stage growth inhibition, dose response, imaging, Malaria Box, P. yoelii, HepG2-A16-CD81EGFP (AID 602156); 5,700 compounds, 4.8% hits; P. yoelii liver stage in HepG2-A16-CD81EGFP, imaging; first-round cut-off not given here; calls after a first round at 10 µM; hits with a dose series show IC50 in µM; in the data active = a potency from the dose series;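 note: infected cells exposed to compound for 48 hours before fixation; stained parasite area by imaging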
The depositor's hits bear a star; i = inactive.

| Structure | P. yoelii liver |
| --- | --- |
| O=C(Nc1ccc(Cl)c(Cl)c1)Nc1ccc(Cl)c(Cl)c1 | i |
| CC(C)C(=O)NCCCCNc1ccnc2cc(Cl)ccc12 | i |
| O=C(COC(c1ccccc1)c1c(Cl)cncc1Cl)N1CCNCC1 (stereo not drawn) | i |
| Cc1cc(NC(=O)/C=C/c2ccccc2Cl)ccc1Br | i |
| COc1cc2c(cc1OC)C1Cc3ccc(OC)c(OC)c3CN1CC2 (stereo not drawn) | i |
| COC(=O)C1=C(C)N(C)C(C)=C(C(=O)OC)C1c1ccc(C)cc1 | i |
| Cc1ccc(C(=O)Nc2ccc(-c3nc4cc5ccccc5cc4[nH]3)cc2)cc1[N+](=O)[O-] | i |
| CCCN(CCC)CC(O)COc1ccccc1C(=O)Nc1ccccc1 (stereo not drawn) | i |
| C[N+](C)(CCCC(=O)c1ccc(C(=O)CCC[N+](C)(C)Cc2ccccc2Cl)cc1)Cc1ccccc1Cl | i |
| Cc1cc(Nc2cccc(C(F)(F)F)c2)nc(N)n1 | i |
| O=C(NCCCCNc1ccnc2cc(Cl)ccc12)c1cc(C(F)(F)F)cc(C(F)(F)F)c1 | i |
| CCOc1ccc(NC(=O)c2ccc(C)o2)cc1 | i |
| O=C(CSc1ccccc1)NCCCCNc1ccnc2cc(Cl)ccc12 | i |
| Cc1cc(C)n(-c2ccc(NC(=O)C3CCN(Cc4ccc5nonc5c4)CC3)cc2)n1 | i |
| Fc1ccc(Nc2nc(NCc3ccccc3)c3ccccc3n2)cc1 | 3.8µM* |
| CC(=O)N(C1=C(N(C)C)C(=O)c2ccccc2C1=O)c1cccc(F)c1 | i |
| O=C1Nc2ccccc2C1=NN=Cc1ccc(-c2ccccc2[N+](=O)[O-])o1 | i |
| O=C(CN1CCCC1)Nc1nc(-c2ccc3c(c2)CCN3S(=O)(=O)c2ccccc2)cs1 | i |
| N#Cc1ccccc1Cn1nc(-c2cccnc2)oc1=O | i |
| CCNc1nc(NC(C)(C)C)nc(N2CCCC2)n1 | i |
| CCCNC(=O)Cn1nc(C)n2c(cc3sccc32)c1=O | i |
| Cc1ccc(S(=O)(=O)Nn2c(SCC(=O)NCCc3ccc(S(N)(=O)=O)cc3)nc3ccccc3c2=O)cc1 | i |
| COc1ccc(-n2nc(C(=O)NCC(=O)Nc3ccc(F)cc3)c3ccccc3c2=O)cc1Cl | i |
| COc1ccc(CNC(=O)c2ccc3c(c2)N=C(/C=C/c2ccccc2)N(CCN2CCOCC2)C3)cc1 | i |
| O=C(C1CCC(Cn2c(=S)[nH]c3ccccc3c2=O)CC1)N1CC=C(c2ccccc2)CC1 (stereo not drawn) | i |
| O=C(C1CC1)N1CCc2cc(Br)cc(S(=O)(=O)N3CCCCCC3)c21 | i |
| C[C@@H]1CCC[C@@H](C[C@H]2Cc3cc(O)cc(O)c3C(=O)O2)O1 | 0.11µM* |
| CC(C)CN(CC(=O)Nc1cc(C(C)(C)C)nn1-c1ccccc1)C(=O)COc1ccccc1 | i |
| CN1CCN(CCCNc2ccnc3cc4ccccc4cc23)CC1 | i |
| O=C(Nc1ccncc1)Nc1cccc(NC(=O)Nc2ccncc2)c1 | i |
| CCOC(=O)c1c(NC(=O)CSc2nc3c(c(=O)n(C)c(=O)n3C)n2C(C)C)sc2c1CCCC2 | i |
| Cc1ccn2c(NC(C)(C)CC(C)(C)C)c(-c3ccccc3OC(=O)C(C)(C)CCl)nc2c1 | i |
| CCSCCOC(=O)C1=C(C)NC2=C(C(=O)CCC2)C1c1ccc(OC)c(Br)c1 (stereo not drawn) | i |
| COc1ccccc1Nc1nc2cc([N+](=O)[O-])c([N+](=O)[O-])cc2nc1Nc1cccc(Cl)c1 | i |
| C=CCSc1nnc2c(n1)[nH]c1ccc(OCC)cc12 | i |
| Cc1ccccc1CN1CCN(C/C=C/c2ccccc2)CCC1=O | i |
| O=C(Nc1ccc(C(F)(F)F)cc1)c1cc(S(=O)(=O)NC2CCCCCC2)ccc1F | i |
| Cc1ccccc1C=C1SC(=Nc2ccccc2)NC1=O | i |
| Cc1ccc(O)c(Nc2c3c(c(C#N)c4nc5ccccc5n24)CCC3)c1 | i |
| c1ccc(-c2cc(NCc3ccco3)nc(-c3ccccn3)n2)nc1 | i |
| O=C1C(=O)c2ncccc2-c2cccnc21 | i |
| Cc1ccc(Sc2c(C)nn(C(=O)c3cccnc3)c2C)cc1 | i |
| O=C(Cn1c(-c2ccccc2)c[n+]2ccsc12)c1ccccc1 | i |
| O=c1c(=Cc2ccc(-c3ccc([N+](=O)[O-])cc3Cl)o2)sc2nc3ccccc3n12 | i |
| CCOc1ccc(Br)cc1C=C1SC(=Nc2ccccc2CC)N(c2ccccc2CC)C1=O | i |
| Cn1c(=O)c2c(ncn2CC(O)CNC2=NCCCC2)n(C)c1=O (stereo not drawn) | i |
| c1ccc2[nH]c(Sc3ncnc4sc5c(c34)CCC5)nc2c1 | i |
| O=C(CSc1nc2ccccc2c(=O)n1CCCN1CCOCC1)Nc1cccc(S(=O)(=O)N2CCCCCC2)c1 | i |
| COc1ccc(CCNC2(Cc3ccccc3)CC(C)N(C)CC2C)cc1OC (stereo not drawn) | i |
| CCOCc1nnc(NC(=O)COc2ccc(Cl)cc2Cl)s1 | i |
| CCOc1ccc(Nc2nc(N)c3ccccc3n2)cc1 | i |
| Cc1cccc(C)c1-n1c(SCc2cccc(F)c2)nc2c(sc(=S)n2-c2c(C)cccc2C)c1=O | i |
| C[n+]1ccccc1/C=C/c1ccc(Br)cc1 | i |
| CC(C)(C)CC(C)(C)Nc1c(-c2ccccc2OC(=O)c2ccc(C(F)(F)F)cc2)nc2ccccn12 | i |
| Cc1cc(Nc2ccc(Cl)c(C)c2)n2nc(C)nc2n1 | i |
| O=C(NC(CN1CCCC1)c1ccccc1)C1CCCCN1S(=O)(=O)c1ccccc1 (stereo not drawn) | i |
| COc1ccc(CN2CCC(Sc3ncccn3)CC2)cc1 | i |
| CCN1c2ccccc2N=C2C=CC(N)=CC21 (stereo not drawn) | i |
| CN(C)c1ccc(N/C=C/C(=O)C(C)(C)C)cc1 | i |
| COc1ccc(OC)c(-c2ccc(O)c(CNCCc3ccccc3F)c2)c1 | i |

The list goes on:
| Structure | P. yoelii liver |
| --- | --- |
| CC(C)CNc1nc(NCCCN2CCCC2)ncc1C(=O)NCCc1ccccc1 | i |
| Nc1noc2cccc(OC3CCNCC3)c12 | i |
| CCN(Cc1ccccc1)c1ncnc2ccc(Br)cc12 | i |
| CNc1ccccc1C(=O)N(C)CCc1ccccc1 | i |
| CC(=O)Nc1ccc2c(c1)C(=O)N(C(CC(C)C)C(=O)NCC(=O)O)[C@@H](CCC(=O)OCc1ccccc1)C(=O)N2 (stereo partly drawn) | i |
| CCCCCCCCCCCC(=O)Oc1ccccc1-c1nc2ccccn2c1NC(C)(C)CC(C)(C)C | i |
| COc1cccc(NC(=O)c2ccc(NCCCN3CC(C)CC(C)C3)c([N+](=O)[O-])c2)c1 (stereo not drawn) | 0.44µM* |
| CC(C)(C)Cc1ccc(OCCCC(=O)Nc2ccc(Cl)c(N)c2)c(CC(C)(C)C)c1 | i |
| O=S(=O)(Nc1cc(Sc2ncn[nH]2)c(O)c2ccccc12)c1ccc(F)cc1 | i |
| CCOc1ccc2[nH]c(=O)c(CN(CCCN3CCOCC3)C(=S)NCCCN(CC)CC)cc2c1 | i |
| O=[N+]([O-])c1cc(NC2OC(CO)C(OC3OC(CO)C(O)C(O)C3O)C(O)C2O)ccc1Cl (stereo not drawn) | i |
| Clc1cccc(-c2cn3ccnc3c(N3CCN(c4ccncc4)CC3)n2)c1 | i |
| O=[N+]([O-])c1cccc2c(S(=O)(=O)NCCCN(CCO)CCO)cccc12 | i |
| Cc1cc(C)cc(NC(=O)c2cc(-c3ccc(Cl)cc3)nc3ccccc23)c1 | i |
| CCC(=O)Nc1ccc2nc(SCC(=O)Nc3ccc(C(C)=O)cc3)sc2c1 | i |
| O=C1NC(=Nc2ccccc2)C(=Cc2ccc(O)cc2)S1 | i |
| CC(C)(C)CC(C)(C)Nc1c(-c2ccccc2OC(=O)c2ccc(Cl)c(Cl)c2)nc2ccccn12 | i |
| c1ccc2c(c1)OC13CCCCC1C2NCC3 (stereo not drawn) | i |
| COc1ccc(-c2cc(=O)c3c(O)cc(OC4OC(COC5OC(C)C(O)C(O)C5O)C(O)C(O)C4O)cc3o2)cc1 (stereo not drawn) | i |
| COc1ccc(CC(=O)Nc2ccc(S(=O)(=O)N3CCCCCC3)cc2)cc1 | i |

Compounds listed so far containing an NH in an aromatic ring, in the order listed:
| Structure | P. yoelii liver |
| --- | --- |
| Cc1ccc(C(=O)Nc2ccc(-c3nc4cc5ccccc5cc4[nH]3)cc2)cc1[N+](=O)[O-] | i |
| O=C(C1CCC(Cn2c(=S)[nH]c3ccccc3c2=O)CC1)N1CC=C(c2ccccc2)CC1 (stereo not drawn) | i |
| C=CCSc1nnc2c(n1)[nH]c1ccc(OCC)cc12 | i |
| c1ccc2[nH]c(Sc3ncnc4sc5c(c34)CCC5)nc2c1 | i |
| O=S(=O)(Nc1cc(Sc2ncn[nH]2)c(O)c2ccccc12)c1ccc(F)cc1 | i |
| CCOc1ccc2[nH]c(=O)c(CN(CCCN3CCOCC3)C(=S)NCCCN(CC)CC)cc2c1 | i |

More entries
| Structure | P. yoelii liver |
| --- | --- |
| CCCCCCOc1ccc(NC(=O)c2ccco2)cc1 | i |
| CCOC(=O)c1cc(-c2ccc(Cl)cc2Cl)[nH]c1N1CCN(c2ccc(OC)cc2)CC1 | i |
| O=C(NC(C(=O)c1ccccc1)N1CCCCC1)c1ccco1 (stereo not drawn) | i |
| N#C/C(=C\C=C\c1ccc([N+](=O)[O-])o1)c1nc2ccccc2[nH]1 | i |
| Cc1ccc(NC(=O)CCCCC(=O)Nc2ccc(C)c(Br)c2)cc1Br | i |
| COC(=O)C1=C(O)/C(=C/c2cc(C)n(-c3cc(C)ccc3C)c2C)N=C1C | i |
| c1ccc(-c2nc(NCCCn3ccnc3)cc(-c3ccncc3)n2)cc1 | i |
| CCSc1sc2sccc2[n+]1CC | i |
| CCCc1ccc(C(=O)NC(=O)c2ccccc2O)cc1 | 0.0042µM* |
| COC(=O)C1=C(C)NC2=C(C(=O)CC(c3ccc(OC)c(OC)c3)C2)C1c1ccc(F)cc1 (stereo not drawn) | i |
| O=C1CC(c2ccc([N+](=O)[O-])cc2)C2=C(CC(c3ccc(F)cc3)CC2=O)N1 (stereo not drawn) | i |
| COc1ccc(C2CC(=O)C3=C(C2)NC(=O)CC3c2ccc(C(F)(F)F)cc2)cc1OC (stereo not drawn) | i |
| CN(C)c1cc[n+](CC(=O)c2cccs2)cc1 | i |
| CCCC(CCC)C(=O)Nc1ccc2c(c1)N(C(=O)CCCl)c1ccccc1CC2 | i |
| CCCOC(=O)c1c(NC(=O)c2c(I)cnn2C)sc2c1CCCCC2 | i |
| CCc1nc2nc(C)cc(Nc3ccc4c(c3)OCCO4)n2n1 | i |
| CCN(CC)CCCN(Cc1cc2cc(OC)ccc2[nH]c1=O)C(=S)Nc1cccc(Cl)c1 | i |
| O=C(C=Cc1ccccc1)c1c(-c2ccccc2)c2cc([N+](=O)[O-])ccc2[nH]c1=O | i |
| CCOc1ccc(-c2nc(NC(=O)CS(=O)(=O)c3ccccc3)sc2C)cc1 | i |
| COC(=O)c1ccccc1NC(=O)CN(C)c1nc(-c2ccc(OC)cc2)no1 | i |
| CC[n+]1c(C=CN(C)c2ccccc2)sc2ccc(OC)cc21 | i |
| COc1cccc(C(=O)Oc2ccccc2-c2nc3ccccn3c2NC(C)(C)CC(C)(C)C)c1 | i |
| Fc1ccccc1CCNc1ncnc2c1[nH]c1ccccc12 | i |
| COc1ccc(CCN2CCC(Nc3nc4ccccc4n3Cc3ccc(F)cc3)CC2)cc1 | i |
| Cc1ccc(Cn2c(SCc3ccc(C(=O)NCCc4ccccc4)cc3)nc3ccncc32)cc1 | i |
| CN=C(N)Nc1nc(C)c2cc(OC)ccc2n1 | i |
| CN(C)CCNC(=O)c1ccc(-c2cccc3c2sc2ccccc23)nc1N1CCN(CCO)CC1 | i |
| O=C1[C@H]2Cc3c([nH]c4ccccc34)C(CCc3ccccc3)N2C(=O)CN1CCc1c[nH]c2ccccc12 (stereo partly drawn) | i |
| OC(CN1CCOCC1)Cn1c2ccc(Br)cc2c2cc(Br)ccc21 (stereo not drawn) | i |
| Cc1ccc(-c2cc(C(=O)OCC(=O)c3cccc([N+](=O)[O-])c3)c3cc(C)ccc3n2)cc1 | i |
| CCCCCSc1scc(-c2ccc(O)c(O)c2)[n+]1C | i |
| O=C1NCCN1C(=O)C(c1ccccc1)c1ccccc1 | i |
| COc1ccc(-n2c(O)c(C3=c4cc(F)ccc4=NC3=O)sc2=S)c(OC)c1 | i |
| Cn1cnnc1SCC(=O)Nc1ccccc1C(F)(F)F | i |
| Cc1nc([P+](c2ccccc2)(c2ccccc2)c2ccccc2)c(N2CCCCC2)o1 | 0.082µM* |
| CCCCCOc1ccc(/C=C2/N=C(c3ccccc3)OC2=O)cc1 | i |
| COc1cc(C=C2SC(=Nc3ccccc3)NC2=O)ccc1OCc1ccccc1F | i |
| COc1ccc(NC(=O)CCn2c(=S)oc3ccccc32)c([N+](=O)[O-])c1 | i |
| CC(=NN=C(N)N)c1ccc(C)cc1 | i |
| CCSc1nc2sc3c(c2c(=O)n1-c1ccccc1)CCN(Cc1ccccc1)C3 | i |
| CCCCOc1ccc(NC2=C(N3CCCCC3)C(=O)c3ccccc3C2=O)cc1 | i |
| O=C(C1CC1)N1CCc2cc(Br)cc(S(=O)(=O)N3CCCC3)c21 | i |
| Cc1nc2ncccn2c1-c1csc(Nc2ccccn2)n1 | i |
| Cc1cccc(N(C)c2nc3ccccc3c3nnc(C)n23)c1 | i |
| O=C(COc1cccc(Br)c1)NN=Cc1ccccc1F | i |
| CCOc1ccc(/C=C(/C#N)c2nc3ccccc3[nH]2)cc1OC | i |
| CC(C)C1N=C2c3ccccc3N=C(SCC(=O)Nc3cc(C(F)(F)F)ccc3Cl)N2C1=O (stereo not drawn) | i |
| CN1C2CCC1/C(=C\c1ccsc1)C(=O)/C2=C\c1ccsc1 | i |

These rows are one share of the data. The share of hits here may be higher or lower than overall.
